Assay outcomes deposited in PubChem BioAssay by National Center for Advancing Translational Sciences (NCATS).
Anthrax LT inh = inhibitors of anthrax lethal toxin internalization; hit rate 0.67% among 70,000; Potency, µM (doses to about 40 µM), for the others: top-dose activity change, negative = inhibition, hits mostly inhibitors; Cells, anthrax lethal toxin internalization, FRET ratio (460/530); active = well fitted falling ratio curve with the 530 nm signal flat; inconclusive = other ratio curves, or a change in one channel alone; inactive = flat curves in the ratio and both channels; the % refers to the ratio; also: % is scaled to controls: 0 for no effect and ±100 for the full control effect; nearly all actives have a fitted effect of over 50% in size; tested in ME-180 cells; beta-lactamase reporter
Prx2 Sm inh = blocks S. mansoni peroxiredoxin 2 enzymatic activity. S. mansoni Prx2 activity coupled to TGR/GSH (TGR is thioredoxin glutathione reductase), NADPH fluorescence loss, qHTS; some inactives read as strong as hits. Potency, µM. hit rate 0.07% among 65,000; active means full or partial inhibition curve with a strong effect at the top dose; inconclusive means weaker partial or single-point curve; inactive means no accepted curve; also: series up to 57 µM; many of its hits are not listed in these tables
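qHTS, coupled TGR/Prx2 format; 15 min compound preincubation at RT; reaction started with H2O2 (2.5 mM aliquot); kinetic NADPH fluorescence decrease, ex 365/em 450 nm.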
Starred values were filed as active, the others as inactive; ? = inconclusive; / = not tested or not shown; & = joins results of further samples; [ ] = remark or other dose. Potency is read from the fitted curve at half-maximal effect. Only part of the results is shown; count on the stated rates, not on these rows.

Compound	Anthrax LT inh	Prx2 Sm inh
COc1ccc(S(=O)(=O)N2CCN(C(=O)c3cccs3)CC2)cc1	24%	>57
COc1cc(C(=O)NCCC(=O)NCCN2CCCCCC2)cc(OC)c1OC	-10%	>57
COc1ccc(C(C(O)C(=O)c2c[nH]c3ccccc23)N2CCN(c3ccc(OC)cc3)CC2)cc1 (centres undefined)	?	>57
CCOC(=O)N1CCC(N2C(=O)c3ccccc3C2Nc2cc(OC)c(OC)c(OC)c2)CC1 (centres undefined)	7%	>57
O=C(O)CN1C(=O)CC(Cc2ccccc2)C1=O (centres undefined)	-1%	>57
COC(=O)c1ccccc1NC(=O)c1ccc(NS(C)(=O)=O)cc1	2%	>57
CCS(=O)(=O)N1CCC(NC(=O)C2CCCCC2)CC1	2%	>57
C[C@]12Cc3cn4c(nc3C=C1CC[C@H]1[C@@H]2CC[C@@]2(C)[C@H]1CC[C@@]2(O)C#N)nc1ccccc14	?	>57
CN(C)c1ccc(-c2nccc(NCc3ccccc3)n2)cc1	-11%	>57
Cc1ccc(C(C(=O)NC2CCCCC2)N2CCOCC2)cc1 (centres undefined)	11%	>57
NC(=O)c1c(NC(=O)c2cccs2)sc2c1CCCCCC2	?	>57
Cn1nnc2cc(C(=O)NCc3ccco3)ccc21	5%	>57
Cc1ccc(NC(=O)c2ccccc2F)nc1	-2%	>57
CN(C)Cc1cc(C(=O)O)cc(CN(C)C)c1O	3%[8 µM]	>57
Cc1ccc(S(=O)(=O)N2CCN(S(C)(=O)=O)C2c2ccccc2)cc1 (centres undefined)	-3%	/
CCC1Oc2ccc(Cl)cc2N(CC(=O)O)C1=O (centres undefined)	6%	>57
COc1cc(N)ccc1Cc1ccc(N)cc1OC	?	>57
COc1ccccc1S(=O)Cc1ccc(C(=O)NCCc2ccc(Cl)cc2)o1 (centres undefined)	2.5µM*	>57
CCS(=O)(=O)NCc1ccc2[nH]c3c(c2c1)CCCC3	-2%	>57
Cc1cccc(-n2nc3c(c2NC(=O)c2ccc(Br)o2)CSC3)c1C	/	>57
CCN(C(=O)CSc1nnc(Cn2nnc3ccccc32)o1)c1nc(-c2ccccc2)cs1	-8%	>57
O=C(CCCNS(=O)(=O)c1cccc2nsnc12)N1CCCCC1	10%	>57
COc1ccc(-c2ncc3ccccn23)cc1	-16%	>57
CCOC(=O)N1CCN(C(=O)CSc2nnc(Cn3c(=O)sc4ccccc43)n2C)CC1	-2%	>57
Cc1cc(C)n(-c2nc3ccccc3n3nnnc23)n1	2%	>57
CCN1CCCC1CN=Cc1c(O)n(-c2ccccc2)c(=O)c2ccccc12 (centres undefined)	1%	>57
O=C1[C@H]2[C@H]3[C@H](O)[C@H](O)C/C(=N/OCc4ccccc4)[C@@H]3CC[C@@H]2C(=O)N1Cc1ccc2c(c1)OCO2	-2%[8 µM]	/
CCOc1ccccc1NC(=O)Cn1c(=O)n(CCC(=O)NC2CCCC2)c(=O)c2ccccc21	-9%	>57
O=C(c1ccco1)N(CCCN1CCOCC1)c1nc(-c2ccc(Cl)cc2)cs1	?	>57
C#CCCCO/N=C1/C[C@@H](O)[C@@H](O)[C@@H]2[C@@H]3C(=O)N(Cc4ccccc4)C(=O)[C@H]3CC[C@@H]12	-1%[8 µM]	/
C=CCSc1nc(N)c(C#N)c(-c2ccccc2)c1C#N	-14%	/
Cc1ccc(NC(=O)CN(c2ccc3c(c2)OCO3)S(=O)(=O)c2c(C)n[nH]c2C)cc1	-26%	>57
COc1ccc(-c2nnn(Cc3nc(N)nc(N4CCCCC4)n3)n2)cc1	-13%	>57
Cn1c(=O)c2[nH]c(Nc3ccccc3)nc2n(C)c1=O	9%	>57
Cc1cc(C)c2c(c1)c(C)cc1nnc(SCC(=O)NCc3ccco3)n12	-18%	>57
CCOC(=O)CNC(=O)CSc1nnc(-c2ccco2)n1Cc1ccco1	?	>57
CCCCSC1=C(C#N)C(c2ccccc2C)C(C(=O)OCC)C(=O)N1 (centres undefined)	3%	/
CC1CC(C)CN(Cc2nc3c(c(=O)n(C)c(=O)n3C)n2CCN2CCOCC2)C1 (centres undefined)	-12%	>57
O=C(c1ccc([N+](=O)[O-])cc1)[C@@H](Br)[C@@H](Br)c1ccnc2ccccc12	11%[8 µM]	>57
COc1ccc(-c2noc(CSc3ccccc3)n2)cc1OC	-29%	>57
CCC(C)NCC(=O)Nc1ccc(-c2nc3cc(NC(=O)CNC(C)CC)ccc3o2)cc1 (centres undefined)	?	/
Cc1cc(C)c(C(=O)CSc2n[nH]c(=O)n2C2CC2)cc1C	-12%	>57
COCCn1nnnc1C(c1ccc(OC)c(OC)c1)N1CCN(c2nc3ccccc3s2)CC1 (centres undefined)	?	>57
Cc1nn(-c2ccc(F)cc2)c2nc(N)c(C#N)c(-c3cccs3)c12	?	>57
COC(=O)c1ccc(-n2nnnc2SCC(=O)Nc2ccccc2OC)cc1	-11%	>57
COc1ccc(C(=O)N2CCN(c3cccc(Cl)c3)CC2)c(OC)c1	-12%	>57
O=c1cc(-c2ccc(O)cc2)oc2c([C@H]3O[C@@H](CO)[C@@H](O)[C@@H](O)[C@@H]3O)c(O)cc(O)c12	0%[3.58 µM]	>57
CC1(C)Cc2c(c(N3CCOCC3)nc3sc(-c4ccc(C(=O)O)o4)c(N)c23)CO1	-15%	>57
O=C1C2=CC[C@H]3C(=O)N(C[C@@H]4CCCO4)C(=O)[C@@H]3[C@@H]2[C@H](O)[C@@H]2O[C@H]12	-8%[8 µM]	/
O=C(Nc1ccccc1N1CCCCC1)c1ccc2nccnc2c1	-19%	>57
CCc1ccc2c(CN(CC)Cc3nc4ccccc4c(=O)[nH]3)cc(=O)oc2c1	-20%	>57
COc1ccc(N2C(=O)CC(NC3CC3)C2=O)cc1 (centres undefined)	2%	>57
NC(=NCCCCCCN=C(N)/N=C(\N)Nc1ccc(Cl)cc1)/N=C(\N)Nc1ccc(Cl)cc1	?	>57
O=C(NCc1ccncc1)/C(=N/O)c1ccccc1	14%	>57
C=CCN=C1SC(C)C(=O)N1S(=O)(=O)c1ccccc1 (centres undefined)	?	>57
CCC(C)N1CC23C=CC(O2)C(C(=O)OCc2ccccc2)C3C1=O (centres undefined)	-15%	>57
CN(C)C1(c2nnnn2CCOC(=O)Nc2ccc(Cl)cc2)CCCCC1	-3%	>57
CCOC(=O)N1CCN(C(=O)c2ccc(C)c(S(=O)(=O)Nc3ccccc3)c2)CC1	?	>57
CC(C)n1c(=N)c(C(=O)NCCc2ccccc2)cc2c(=O)n3ccccc3nc21	?	>57
Cc1ccc(NS(=O)(=O)c2ccc(CCC(=O)O)cc2)cc1	-7%	>57

Going on with the list.
Compound	Anthrax LT inh	Prx2 Sm inh
CCc1nnc(NC(=O)CCN2C(=O)c3ccccc3C2=O)s1	-6%	>57
Cc1sc2nc(SCC(=O)NCc3cccs3)[nH]c(=O)c2c1C	-3%	>57
CNC(=O)OCc1cccc(COC(=O)NC)n1	1%	>57
CCOC(=O)Nc1ccc(S(=O)(=O)Nc2cc(C)on2)cc1	14%	>57
O=C(COC(=O)c1ccc(Cl)c(S(=O)(=O)N2CCCC2)c1)NC1CCCC1	?	>57
CC(C)CCn1c(N2CCN(c3cccc(Cl)c3)CC2)nc2c1c(=O)[nH]c(=O)n2C	2%	>57
COC(=O)CSc1nnc(-c2ccc(S(=O)(=O)N3CCCCC3)cc2)o1	?	>57
CCOc1ccccc1NC(=O)Nc1cc(OC)ccc1OC	-3%	>57
Cc1cccc(/N=C/c2c(O)[nH]c3ccccc23)n1	-19%	/
COc1ccccc1NC(=O)C1C2C=CC(O2)C1C(=O)O (centres undefined)	8%	>57
CCOc1ccc(N2CC(C(=O)Oc3ccccc3)CC2=O)cc1 (centres undefined)	-5%	>57
Cc1ccc(NC(=O)c2cnn(-c3ccccc3)c2NC(=O)c2ccco2)cc1	5%	>57
COC(=O)c1ccccc1NC(=O)C1CCCN(c2nnc(-n3cccc3)s2)C1 (centres undefined)	?	>57
Cc1nn(-c2ccccc2)c2nc(=O)n(-c3ccccc3)cc12	1%	>57
O=C(C1CCCN1S(=O)(=O)c1ccc(Cl)cc1)N1CCOCC1 (centres undefined)	3%	>57
COCCNC(=O)[C@H](C)[C@@H]1C[C@@]1(C)[C@@H](NC(=O)OCc1ccccc1)c1ccccc1	-1%	>57
CCOC(=O)c1c(N)sc(C(=O)N(C)C)c1C	-19%	>57
CN1CCN(C(=O)c2cc(Cl)ccc2Cl)CC1	12%	/
COc1ccc(COC2OC[C@]3(C)[C@H]4C5=C(CN3C(=O)OC(C)(C)C)[C@H](C)C(CO)C(CO)C5CC[C@@H]24)cc1 (some centres undefined)	?	>57
COc1ccc(N2CCN(C(=O)C34CCC(C)(C(=O)C3)C4(C)C)CC2)cc1 (centres undefined)	0%	/
NCCNS(=O)(=O)c1cccc2cnccc12	?	>57&>57
CCCCn1c(CNC(=O)C(C)(C)C)nc2ccccc21	0%	>57
CCOC(=O)c1ccc(NC(=O)c2c(O)c3ccccc3n(C)c2=O)cc1	-13%	>57
CC(C)(C)n1nnnc1CN(Cc1ccco1)Cc1cc2cc3c(cc2[nH]c1=O)OCO3	7%	>57
Cc1c(Cl)c(S(N)(=O)=O)cc(S(N)(=O)=O)c1NC(=O)c1ccc(Cl)cc1	-11%[8 µM]	>57
Cc1n[nH]c(C)c1S(=O)(=O)N1CCCC(C(=O)N2CCc3ccccc32)C1 (centres undefined)	?	>57
CCOc1ccc(Cn2nnc(C(=O)Nc3cc(OC)cc(OC)c3)c2N)cc1	19%	>57
CCN(CC)c1ccc(NC(=O)CSc2nnc(N)s2)cc1C	1%	>57
O=C(c1csnn1)N1CCC2(CC1)CN(c1ncccn1)C2	0%	>57
COc1cccc(-c2nc(-c3ccccn3)no2)c1OC	-6%	>57

By substructure: the compounds so far with a cyano group.
Compound	Anthrax LT inh	Prx2 Sm inh
C[C@]12Cc3cn4c(nc3C=C1CC[C@H]1[C@@H]2CC[C@@]2(C)[C@H]1CC[C@@]2(O)C#N)nc1ccccc14	?	>57
C=CCSc1nc(N)c(C#N)c(-c2ccccc2)c1C#N	-14%	/
CCCCSC1=C(C#N)C(c2ccccc2C)C(C(=O)OCC)C(=O)N1 (centres undefined)	3%	/
Cc1nn(-c2ccc(F)cc2)c2nc(N)c(C#N)c(-c3cccs3)c12	?	>57

Next results follow:
Compound	Anthrax LT inh	Prx2 Sm inh
Cn1c(=O)c2c(nc(SCCN3CCOCC3)n2Cc2ccc(F)cc2)n(C)c1=O	6%	>57
O=C(CCc1nc(-c2ccccc2F)no1)NC1CCCCC1	5%	>57
COc1ccc(CNC(=O)CN(C(=O)CCC(=O)Nc2ccccn2)c2ccccc2OC)cc1	?	>57
Cc1ccccc1NC(=O)CN(c1ccc(F)cc1)S(C)(=O)=O	4%	>57
CN1CC[n+]2c(CN3C(=O)c4ccccc4C3=O)csc21	-5%	>57
O=C(Nc1c2c(nn1-c1ccc(F)cc1)CS(=O)C2)C12CC3CC(CC(C3)C1)C2 (centres undefined)	0%	>57
Cc1ccc(C(=O)Nc2ccccc2C(=O)NC2CCCCC2)cc1S(=O)(=O)N1CCOCC1	?	>57
O=C(c1cccc(C(=O)N2CCN(Cc3ccccc3)CC2)c1)N1CCN(Cc2ccccc2)CC1	?	>57
c1ccc(-c2oc3ncnc(NCCCN4CCOCC4)c3c2-c2ccccc2)cc1	?	/
Clc1nc(Cl)nc(Nc2ccccc2Cl)n1	-15%	/
CCOC(=O)C1CCCN(C(=O)CCn2nc(-c3ccccc3)ccc2=O)C1 (centres undefined)	-6%	>57
O=C(O)Cc1cccnc1	-1%[8 µM]	>57
CC12C(=O)N(n3cnnc3)C(=O)C1C1C=CC2C1 (centres undefined)	0%	>57
CCc1ccc(NC(=O)C2CCCCC2C(=O)O)cc1 (centres undefined)	12%	/
O=C(c1ccco1)N1C2C=CC(C2)C1(C(F)(F)F)C(F)(F)F (centres undefined)	-2%	>57
CCCn1c(SCCN2C(=O)c3ccccc3C2=O)n[nH]c1=O	-11%	>57

A few values from above:
Anthrax LT inh result of CN1CC[n+]2c(CN3C(=O)c4ccccc4C3=O)csc21 = -5%
Anthrax LT inh result of CCc1ccc(NC(=O)C2CCCCC2C(=O)O)cc1 (centres undefined) = 12%
Anthrax LT inh result of O=C(Nc1c2c(nn1-c1ccc(F)cc1)CS(=O)C2)C12CC3CC(CC(C3)C1)C2 (centres undefined) = 0%
Anthrax LT inh result of CCCn1c(SCCN2C(=O)c3ccccc3C2=O)n[nH]c1=O = -11%
Anthrax LT inh result of O=C(CCc1nc(-c2ccccc2F)no1)NC1CCCCC1 = 5%
Prx2 Sm inh result of O=C(c1ccco1)N1C2C=CC(C2)C1(C(F)(F)F)C(F)(F)F (centres undefined) = >57
Anthrax LT inh result of Cn1c(=O)c2c(nc(SCCN3CCOCC3)n2Cc2ccc(F)cc2)n(C)c1=O = 6%
